GIV-Gai inh = blocks GIV peptide binding to rat Galpha-i3. P08753. Galpha-i3/FITC-GIV peptide fluorescence polarization, 90 min; hits give low values; scaled: aluminum fluoride 0%, vehicle 100%. percent of control (FP), % (no concentration beside the values). 210,000 tested, 0.42% active;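 active = replicate mean at 85% of control or lower, very high polarization wells dropped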;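 also: wells of about 15 µL received 100 nL stock; the first replicate is given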
Target sequence (P08753 whole entry, looked up): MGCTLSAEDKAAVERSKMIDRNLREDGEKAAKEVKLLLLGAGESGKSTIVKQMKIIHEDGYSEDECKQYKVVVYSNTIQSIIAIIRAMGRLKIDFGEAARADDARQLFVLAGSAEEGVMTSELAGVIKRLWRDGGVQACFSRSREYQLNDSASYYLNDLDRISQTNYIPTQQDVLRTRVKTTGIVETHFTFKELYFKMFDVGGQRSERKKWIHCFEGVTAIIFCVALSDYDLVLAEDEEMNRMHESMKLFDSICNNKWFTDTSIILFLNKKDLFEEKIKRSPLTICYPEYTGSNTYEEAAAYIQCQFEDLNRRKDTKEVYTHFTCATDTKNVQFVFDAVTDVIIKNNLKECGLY
Sa growth inh = inhibitors of Staphylococcus aureus growth at 42 °C. 170,000 tested, 0.53% active. S. aureus RN4220 growth, OD600, 20 h; hits give low values. relative growth, % (no concentration beside the values). AID 720641;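 active = growth at 42 °C up to 50% and 20 or more points under that at 30 °C, or under 10% at both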;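 also: 300 nL library stock went into each well; scaled to the means of positive and negative controls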
HCMV NEC inh = disrupts HCMV UL50-UL53 complex binding. HTRF UL50-UL53 interaction, normalized percent inhibition. inhibition, % (no concentration beside the values). 190,000 tested, 0.15% active;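 active = both replicates at 50% or more, plus weaker picks with an unusually low signal ratio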;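 also: stock transfer was 100 nL into about 20 µL; 0% = negative control wells and 100% = wells with untagged competitor protein; inactives centre near -12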
Sa growth inh second temp = further read-out of Sa growth inh, marked with its call; relative growth, %; measured here: growth at 30 °C;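 optical density after 20 h as mean of two plates; 100% = untreated growth and lower means inhibition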
Active calls of the source: *; . = no result given; & = joins results of further samples.

1: COc1ccc(N2CCN(C(CNC(=O)c3ccc(C)cc3)c3ccc4c(c3)OCO4)CC2)cc1 (stereo not given)
2: Clc1ccccc1Cn1cccc1C1=NC(Cc2ccccc2)CO1 (stereo not given)
3: C=C(C)c1cccc(C(C)(C)NC(=O)N2CCN(c3ccc(OC)cc3)CC2)c1
4: Cc1csc2nc(CSCC(=O)N3CC(C)CC(C)C3)cc(=O)n12 (stereo not given)
5: Cn1cc(S(=O)(=O)N2CCCC2)cc1C(=O)NC1CCN(Cc2ccccc2)CC1
6: Cc1cc(S(=O)(=O)Nc2cc(Br)c3oc4c(c3c2)C(=O)CCC4)ccc1Cl
7: Cn1nc(C(=O)NCc2ccccc2)c2c1CCN(C(=O)c1ccc(Cl)cc1)C2
8: O=C(Cc1csc(-c2cccs2)n1)N1CCN(S(=O)(=O)c2ccccc2C(F)(F)F)CC1
screen / no.,1,2,3,4,5,6,7,8
GIV-Gai inh,97.2,105.8,103.6,.,105.1,99.6,102.9,.
Sa growth inh,104.1,103.5,94.0,123.1,100.3,93.3,.,112.6
Sa growth inh second temp,89.2,91.3,91.2,90.0,85.3,89.1,.,85.3
HCMV NEC inh,.,-3.6,-25.3,-11.2,-11.6,.,-14.4,-22.0

9: Nc1ccccc1N=CC1=C(O)CC(c2ccccc2)CC1=O (stereo not given)
10: CCn1cc(C(=O)NCc2ccccc2)c(=O)c2cc(S(=O)(=O)N3CCOCC3)ccc21
11: CCCN1C(=O)C2(/C(=C(/O)c3ccc(F)cc3)C(=O)C(=O)N2CCN(C)C)c2ccccc21 (stereo not given)
12: CC1(C)Cc2c(c(N3CCOCC3)nc3sc(C(=O)O)cc23)CO1
13: Cc1nc2ccc(C(=O)NCCN(C)C)cc2nc1C
14: CC(=O)Nc1ccc(C(=O)CCC#N)cc1
15: O=C(Nc1cccc2nsnc12)c1cc2cc(Cl)ccc2[nH]1
16: CC(C)C(NC(=O)Cc1ccc(S(=O)(=O)N2CCOCC2)s1)c1nc2ccccc2[nH]1 (stereo not given)
screen / no.,9,10,11,12,13,14,15,16
GIV-Gai inh,.,99.7,98.7,.,110.4,102.4,103.8,.
Sa growth inh,102.4,87.7,105.3,100.0,95.5,110.8,.,82.5
Sa growth inh second temp,49.2,93.2,91.1,99.9,81.4,86.3,.,91.5
HCMV NEC inh,-51.2,-6.2,-8.7,2.9,-15.2,-19.0,17.9,-16.7

17: c1ccc2c(c1)NCC2CN1CCOCC1 (stereo not given)
18: COC(=O)c1sc(NC(=O)CSc2nnc3cc(C)c4ccccc4n23)c(C(=O)OC)c1C
19: O=C(C1CCCN(S(=O)(=O)c2cccs2)C1)N1CCN(c2ccccc2F)CC1 (stereo not given)
20: Cc1nn(C)c(C)c1S(=O)(=O)N1CCN(C(=O)C2CCC2)CC1
21: COc1ccc(-n2nc(C(=O)NCC(=O)N3CC(C)CC(C)C3)c3ccccc3c2=O)cc1 (stereo not given)
22: O=C1C2=C(Nc3ccccc3SC2c2ccc(Cl)c(Cl)c2)c2ccccc21 (stereo not given)
23: Cn1ccsc1=NC(=O)c1cccc(S(=O)(=O)N2CCc3ccccc32)c1
24: Cc1cccc(C(=O)Nc2ccc(C(=O)OCc3cc(=O)n4c(C)csc4n3)cc2)c1
screen / no.,17,18,19,20,21,22,23,24
GIV-Gai inh,101.8,102.9,106.5,105.1,101.1,114.4,.,103.0
Sa growth inh,91.1,.,111.1,.,106.6,112.3,97.4,108.9
Sa growth inh second temp,81.8,.,90.2,.,89.2,90.4,93.3,101.6
HCMV NEC inh,-17.8,-6.8,-14.7,-11.5,-36.1,-25.9,-25.6,.

25: CNC(=O)c1ccccc1S(=O)c1ccccc1CO (stereo not given)
26: COc1ccc(CSCCN)cc1Cl
27: CCOC(=O)c1c(SC)n[nH]c1C
28: N#CCSCC(=O)Nc1ccccc1
29: COc1ccc(Nc2cc(C(=O)NCCCN3CCN(c4ccc(OC)cc4)CC3)c3ccccc3n2)cc1
30: COc1ccc(OC)c(CCNC(=O)CCc2cn(Cc3cc(C)ccc3C)c3ccccc23)c1
31: Cc1ccc(CC23CN4CC(CN(C4)C2)C3=O)c(C)c1
32: O=C(NC1CCCCCCC1)C1CCCN(c2nc3ccccc3o2)C1 (stereo not given)
screen / no.,25,26,27,28,29,30,31,32
GIV-Gai inh,108.8,103.6,102.4,108.7,103.0,108.4,102.3,100.9
Sa growth inh,99.7,105.5,95.1,99.8,128.6,132.7,107.3,108.4
Sa growth inh second temp,95.2,90.1,97.6,105.2,82.3,82.2,86.6,91.9
HCMV NEC inh,-5.8,-27.6,4.1,7.3,.,.,-2.5,5.0

Overlap with the part before: 4 compounds, followed by the next part.
29: COc1ccc(Nc2cc(C(=O)NCCCN3CCN(c4ccc(OC)cc4)CC3)c3ccccc3n2)cc1
30: COc1ccc(OC)c(CCNC(=O)CCc2cn(Cc3cc(C)ccc3C)c3ccccc23)c1
31: Cc1ccc(CC23CN4CC(CN(C4)C2)C3=O)c(C)c1
32: O=C(NC1CCCCCCC1)C1CCCN(c2nc3ccccc3o2)C1 (stereo not given)
33: O=NN(CCCl)C(=O)NC1CCCCC1
34: CCCC(CCC)C(=O)Nc1cccc(-c2nc3ccccc3[nH]2)c1
35: Cc1csc(SCC(=O)c2ccc3c(c2)OCO3)n1
36: CCn1c2ccccc2c2nnc(SCC(=O)Nc3ccc(S(N)(=O)=O)cc3)nc21
37: Cc1ccn2cc(-c3cccc(Cl)c3)nc2c1
38: S=c1cc(-c2ccccc2)[nH]c(=S)[nH]1
39: CC(C(=O)Nc1cccc(C#N)c1)n1nc(-c2ccccc2)c2c(c1=O)CCCC2 (stereo not given)
40: COc1ccc(NC(=O)C2Oc3ccccc3OC2C)cc1 (stereo not given)
screen / no.,29,30,31,32,33,34,35,36,37,38,39,40
GIV-Gai inh,103.0,108.4,102.3,100.9,103.6,.,.,113.2,.,111.7,104.1,99.6
Sa growth inh,128.6,132.7,107.3,108.4,98.4,125.6,116.3,101.0,128.0,82.8,90.4,.
Sa growth inh second temp,82.3,82.2,86.6,91.9,86.3,87.3,83.4,97.0,88.0,32.1,81.2,.
HCMV NEC inh,.,.,-2.5,5.0,-35.6&-1.4,7.2,-9.6,-9.2,-15.6,-36.1,-1.8,-10.6

Profiles, quoted from the list. Order of values: GIV-Gai inh	Sa growth inh	Sa growth inh second temp	HCMV NEC inh
`S=c1cc(-c2ccccc2)[nH]c(=S)[nH]1` in the list: 111.7	82.8	32.1	-36.1
`CCn1c2ccccc2c2nnc(SCC(=O)Nc3ccc(S(N)(=O)=O)cc3)nc21` in the list: 113.2	101.0	97.0	-9.2
`Cc1csc(SCC(=O)c2ccc3c(c2)OCO3)n1` in the list: .	116.3	83.4	-9.6
`O=NN(CCCl)C(=O)NC1CCCCC1` in the list: 103.6	98.4	86.3	-35.6&-1.4

The list goes on:
41: Cc1ccccc1OCc1n[nH]c(=S)n1C
42: O=C1CCCCC1Sc1nc2sccc2c(=O)n1-c1ccccc1 (stereo not given)
43: CCOC(=O)Cn1nnc(CSc2ccc(Cl)cc2)n1
44: COc1ccc(C2CC(=O)Nc3c2c(C)nn3-c2nncc(-c3ccc(C)cc3)n2)c(OC)c1OC (stereo not given)
45: CCNc1nc(CN2CCOCC2)nc2scc(-c3ccccc3)c12
46: COc1ccc(NC(=O)c2cnn(-c3ccc(Br)cc3)c2)cc1Cl
47: CC(C)CCNC(=O)c1cc2c(s1)CS(=O)(=O)C2
48: O=C(CCc1nc2cccnc2n1Cc1cccs1)Nc1cccc(Cl)c1
screen / no.,41,42,43,44,45,46,47,48
GIV-Gai inh,.,.,103.7,104.5,.,105.8,103.1,122.9
Sa growth inh,110.1,97.3,102.1,83.8,92.3,.,101.7,109.1
Sa growth inh second temp,78.2,79.0,88.7,93.9,80.1,.,93.4,82.3
HCMV NEC inh,-3.9,-26.1,-0.8,-59.8,-18.4,-11.8,4.3,-4.4

49: CC(C)c1ccc(OC(=O)c2cc(-c3ccccc3)on2)cc1
50: CN(Cc1ccccc1)c1ccc(-c2nc(-c3ccncc3)no2)cc1[N+](=O)[O-]
51: CNC(=O)c1ccccc1S(=O)c1cccc2cccc(C(=O)O)c12 (stereo not given)
52: CCN(CC)S(=O)(=O)c1ccc(Cl)c(C(=O)OC)c1
53: CNC(=O)c1cn2c3c(ccc(Cl)c3c1=O)OC(C)C2 (stereo not given)
54: Cc1cc(NC(=O)CN(Cc2ccccc2)S(=O)(=O)/C=C/c2ccccc2)no1
55: Cc1cc(C)cc(NC(=O)c2cc(S(=O)(=O)N3CCCC3)ccc2F)c1
56: CS(=O)(=O)N1CCN(S(=O)(=O)c2ccccc2)CC1
screen / no.,49,50,51,52,53,54,55,56
GIV-Gai inh,101.9,97.1,104.6,105.8,109.8,.,98.7,92.7
Sa growth inh,91.3,81.7,91.7,101.6,101.0,93.8,134.6,99.8
Sa growth inh second temp,83.3,95.9,97.1,101.3,88.3,94.8,90.9,88.4
HCMV NEC inh,10.1,-1.5,-33.8,6.9,50.4*,-13.6,.,-1.7

57: CCC1(C)NC(=O)N(/N=C/C2CC=CCC2)C1=O (stereo not given)
58: Cc1noc(C)c1NC(=O)NC1CCCCNC1=O (stereo not given)
59: CC1CCc2ccc(F)cc2N1S(=O)(=O)c1cccs1 (stereo not given)
60: O=C(c1csc2c1CCCCC2)N1CCN(c2ccccc2)CC1
61: O=C(OCC(=O)N1CCCCC1)c1cc(-c2ccccc2)nc2ccccc12
62: CCC(C)NC(=O)CN1CCc2cc(-c3csc(C)n3)ccc21 (stereo not given)
63: Cc1cccc(-c2nccc(Nc3cccc(C(=O)NC(C)C)c3)n2)c1
64: O=C(Cn1nc(Cc2cccnc2)c2ccccc2c1=O)Nc1ccc(Oc2ccccc2)cc1
screen / no.,57,58,59,60,61,62,63,64
GIV-Gai inh,.,115.8,118.8,96.6,.,.,109.4,98.8
Sa growth inh,86.3,91.5,138.0,81.8,107.8,113.0,.,87.2
Sa growth inh second temp,88.0,92.5,92.1,78.8,103.4,95.8,.,85.7
HCMV NEC inh,-17.5,-26.1,.,.,-43.4,9.9,14.2,.

65: O=C(c1cnn2c1NC(c1cccs1)CC2C(F)(F)F)N1CCSCC1 (stereo not given)
66: O=C1OC2(O)C3C4C=CC(C4)C3C(=O)N2c2ccccc21 (stereo not given)
67: O=C(Nc1ccccc1)c1nnc(CSCC(=O)N2CCN(c3ccccn3)CC2)s1
68: c1ccc(-c2cc(-c3ccco3)no2)cc1
69: COc1ccc(NC(=O)CC2C(=O)N(c3ccc(C)cc3)C(=O)N2C2CCCCC2)cc1 (stereo not given)
70: Cc1csc2nc(COC(=O)c3ccccc3NC(=O)c3cccc(Br)c3)cc(=O)n12
71: O=C(Nc1ccc2nc(SCC(=O)N3CCc4ccccc43)sc2c1)c1ccc(F)cc1
72: CCOc1ccc(C=Nc2ccc3sc(C)nc3c2)cc1
screen / no.,65,66,67,68,69,70,71,72
GIV-Gai inh,106.0,100.7,103.8,.,100.5,98.8,104.9,110.2
Sa growth inh,119.7,90.5,.,72.0,109.8,67.7,105.4,115.1
Sa growth inh second temp,92.8,86.9,.,68.5,90.2,83.8,79.5,89.2
HCMV NEC inh,-10.5,-29.0,-36.8,-16.4,-25.6,.,-7.9,.

73: Cc1c(CCC(C)C)c(NCCN2CCOCC2)n2c(nc3ccccc32)c1C#N
74: COC(=O)c1cc(-c2cccs2)nc2ccccc12
75: CCN(CC)S(=O)(=O)c1cccc(-c2nn(CN3CCN(c4ccc(O)cc4)CC3)c(=S)o2)c1
76: Cc1[nH]c2ccccc2c1C(=O)COC(=O)C1CC(=O)N(Cc2ccco2)C1 (stereo not given)
77: CCc1nn2c(=O)cc(COC(=O)c3ccc(NC(=O)COc4ccccc4C)cc3)nc2s1
78: Cc1nn(-c2ccccc2)cc1-c1noc(C(=O)NCc2ccccc2Cl)n1
79: COc1ccc(-n2c(=O)c3c4c(sc3n(C)c2=O)CN(C(C)=O)CC4)cc1
80: Cc1ccc(CSC2=Nc3ccccc3C3=NC(CC(=O)NCc4cccs4)C(=O)N23)c(C)c1 (stereo not given)
screen / no.,73,74,75,76,77,78,79,80
GIV-Gai inh,99.8,101.0,.,.,105.8,102.9,103.8,98.9
Sa growth inh,92.7,117.5,102.4,98.9,109.3,.,91.3,61.1
Sa growth inh second temp,77.1,80.7,100.1,81.3,94.9,.,89.9,65.0
HCMV NEC inh,-46.0,-31.8,-16.3,-34.5,.,-32.2,-11.5,.

81: Cc1ccc(CN(C(=O)c2ccc(C(C)(C)C)cc2)c2ccccn2)o1
82: CC1(C)CC2CC(C)(CN2C(=O)CSc2nc3ccccc3c(=O)[nH]2)C1 (stereo not given)
83: COc1ccc2c(c1)CCc1c(C(=O)Nc3ccccc3C(F)(F)F)noc1-2
84: O=C1N=c2ccc(Br)cc2=C1c1sc(=S)n(Cc2ccc(Cl)cc2)c1O
screen / no.,81,82,83,84
GIV-Gai inh,101.8,.,100.7,106.8
Sa growth inh,82.3,102.6,95.2,.
Sa growth inh second temp,90.1,90.2,110.4,.
HCMV NEC inh,-13.2,-21.2,14.4,-9.7

Random draw from the library; any-hit rate near 0.85%.
